Compound activity from PubChem.
Vif A3G: inhibitors of Vif binding to APOBEC3G peptide, primary screen, biochemical, TR-FRET, GST-Vif 1-94, biotin-A3G peptide, dose response retest (AID 1117319) | TR-FRET GST-Vif / biotin-A3G peptide binding; higher % means a stronger effect; test concentration not given here; strong numbers were not always called active | inhibition, %; hits with a dose series show IC50 in µM | hit rate 0.57% among 260,000;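 active means above the screen mean plus three standard deviations and confirmed in dose response; inconclusive means results disagree or hit not tested in dose response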;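 further: Vif residues 1-94 fused to GST binding biotinylated APOBEC3G peptide 110-148; 0% = full assay without inhibitor and 100% = GST in place of GST-Vif; retest series ran down from 100 µM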
HNF4A DNA FP: change in binding of human HNF4 alpha to DNA | P41235 | activity change, % at 10 µM | hit rate 0.3% among 360,000 | HNF4a-FITC DNA binding, fluorescence polarization, 1 h; in the data active means activity change above about 30%, passing the limit was not always enough;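 further: controls were the assay level and a saturating level of protein; the project sought stronger binding though the title names inhibitors; some compounds called inactive have numbers as strong as hits; positive values seem to mean higher polarization but the record does not say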
Target sequence (P41235 whole entry, looked up): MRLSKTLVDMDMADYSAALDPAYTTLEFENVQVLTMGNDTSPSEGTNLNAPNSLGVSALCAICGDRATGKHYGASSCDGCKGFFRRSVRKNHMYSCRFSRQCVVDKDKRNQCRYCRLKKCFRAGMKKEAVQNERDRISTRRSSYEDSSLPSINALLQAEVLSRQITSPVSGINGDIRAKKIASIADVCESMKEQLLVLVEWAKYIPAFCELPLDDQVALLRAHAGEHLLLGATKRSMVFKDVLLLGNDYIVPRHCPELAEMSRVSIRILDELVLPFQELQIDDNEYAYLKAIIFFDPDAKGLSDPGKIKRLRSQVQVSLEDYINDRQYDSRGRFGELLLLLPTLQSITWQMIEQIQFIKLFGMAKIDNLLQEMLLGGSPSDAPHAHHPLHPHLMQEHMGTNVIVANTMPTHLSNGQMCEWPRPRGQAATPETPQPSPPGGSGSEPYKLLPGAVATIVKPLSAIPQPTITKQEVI
ALR H2O2 inh: blocks human ALR sulfhydryl oxidase activity; P55789; purified ALR, DTT oxidation, H2O2 HRP-luminol luminescence; inhibition, % (no concentration beside the values); hit rate 3.8% among 290,000; AID 485317;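 active means mean and each replicate at 75% or more; inconclusive means only one of the two met; inactive means neither met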;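 further: stock transfer was 7.5 nL into about 7.5 µL; 0% = neutral wells and 100% = wells with inactivated enzyme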
Target sequence (P55789 whole entry, looked up): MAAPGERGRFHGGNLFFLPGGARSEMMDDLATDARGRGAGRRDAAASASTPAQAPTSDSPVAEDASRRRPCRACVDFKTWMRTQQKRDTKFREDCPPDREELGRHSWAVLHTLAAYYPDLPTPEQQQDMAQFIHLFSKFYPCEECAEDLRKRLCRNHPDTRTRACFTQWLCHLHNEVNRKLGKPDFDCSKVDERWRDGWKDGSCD
B2AR ag: human beta-2 adrenergic receptor agonism by FAP. P07550. hit rate 0.43% among 340,000. AID 504454. Am2.2-beta2AR cells, FAP receptor internalization, flow cytometry; reference of the scale not given here. response, % (no concentration beside the values);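 active means response above a set limit, near 3 SD of response in nonfluorescent compounds, cut at about 42% in these data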;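 further: stock transfer was 100 nL into about 11 µL; a reference agonist was the positive control; negative values mostly stem from fluorescent compounds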
Target sequence (P07550 whole entry, looked up): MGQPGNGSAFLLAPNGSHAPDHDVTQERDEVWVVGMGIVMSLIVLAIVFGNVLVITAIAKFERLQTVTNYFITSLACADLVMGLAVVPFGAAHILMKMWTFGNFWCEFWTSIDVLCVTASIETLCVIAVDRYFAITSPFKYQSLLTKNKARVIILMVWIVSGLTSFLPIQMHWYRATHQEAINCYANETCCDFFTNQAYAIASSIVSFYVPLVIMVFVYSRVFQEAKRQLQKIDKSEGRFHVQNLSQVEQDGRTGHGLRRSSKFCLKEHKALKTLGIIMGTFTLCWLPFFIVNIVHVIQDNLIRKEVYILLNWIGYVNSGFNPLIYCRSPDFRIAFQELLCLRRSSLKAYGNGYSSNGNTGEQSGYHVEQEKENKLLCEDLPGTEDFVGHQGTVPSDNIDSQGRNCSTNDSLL
Calb FLC: C. albicans growth modulation with fluconazole | C. albicans CaCi-2 (fluconazole-resistant clinical isolate) + fluconazole, Alamar Blue growth, 48 h | growth inhibition, % (test concentration not listed) | hit rate 0.57% among 300,000 | AID 1979;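 active means most replicates above 75%; inconclusive means exactly half above 75%; inactive means most below 75%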;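 further: all wells also contain fluconazole at 8 µg/ml as a sub-toxic cotreatment; 0% = median of DMSO wells and 100% = median of geldanamycin control wells; wells of about 8 µL received 7.5 nL stock; the first replicate is given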
LANA-H2B inh: blocks KSHV LANA binding to histone H2A/H2B; cell-free LANA-H2A/H2B peptide, fluorescence polarization; Q9QR71; hit rate 0.6% among 320,000; inhibition, % (concentration not given with the values); in the data active means inhibition mostly above about 10%, no sharp cut-off; inactive means mostly below about 6.7%;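 further: stock transfer was 7.5 nL into about 10 µL; 0% = median of vehicle wells and 100% = median of positive control wells; one replicate is shown; the record names a cut of 25% in any replicate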
RanGTP-Impb inh: disruptors of Ran-importin-beta complex formation – biochemical, FRET, CFP-Ran, YFP-importin-beta, homogeneous, primary screen; cell-free CFP-Ran/YFP-importin-beta FRET ratio; inhibition, % (concentration not given with the values); hit rate 1.1% among 300,000; AID 2216;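 active means most replicates above 15%; inconclusive means exactly half above 15%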;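 further: 0% = DMSO wells and 100% = Ran loaded with GDP instead of GTP; wells of about 40 µL received 100 nL stock; the first replicate is given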
* hit, by the source's call; ? = inconclusive; nt = not tested or not shown; & = joins results of further samples. Not a hit list, and some 6.3% of all compounds hit somewhere here.

SMILES	Vif A3G	HNF4A DNA FP	ALR H2O2 inh	B2AR ag	Calb FLC	LANA-H2B inh	RanGTP-Impb inh
CC(=O)N(CCC(Cc1ccccc1)c1ccco1)Cc1ccco1 (centres undefined)	9%	5.5	22	-1	-2	4.2	-1.2
CC(=N\Nc1ccccc1)/C(=N/O)C(=O)Nc1ccccc1	1%	1.1	97*	nt	-3	1.9	3.3
C/C(=N\NC(=O)c1ccc(Cn2cc(Br)cn2)o1)c1ccc(NC(=O)c2ccoc2C)cc1	nt	1.7	nt	5	-1	nt	1.4
CCOc1ccc(CN(Cc2ccco2)C(c2cccs2)c2nnnn2C(C)(C)C)cc1 (centres undefined)	1%	1.3	-10	-2	-2	-2.8	5.7
Cc1cc(C(=O)NNC(=O)COc2ccccc2Cl)n[nH]1	nt	0.3	nt	7	-12	3.9	-0.2
CN(Cc1ccc2nonc2c1)Cc1nc(Cc2cccc(F)c2)no1	nt	-1.2	-17	4	18	1.2	-2.7
Nc1nonc1-n1nnc(C(=O)N/N=C/c2ccc(Cl)cc2Cl)c1CN1CCCC1	nt	-0.3	nt	2	-2	4.2	3.9
Cc1nc(-c2cccc(NC(=O)C3CCCCC3)c2)cs1	?	1.6	-1	14	1	9.8	-0.6
CS(=O)(=O)N1CCN(c2ccc(NC(=S)NC(=O)c3ccccc3[N+](=O)[O-])cc2)CC1	-1%	-0.8	-5	0	?	1.9	-1.4
O=C(O)C1CC(=O)N(c2ccc(F)c(F)c2)C1 (centres undefined)	-6%	1.2	-2	0	-18	-0.4	-0.3
O=C1CC(c2ccccc2)CC(O)=C1C=NCc1ccncc1 (centres undefined)	6%	1.1	-7	2	11	2.1	2.0
Cc1cccc2sc(N(CCCN(C)C)C(=O)CCc3ccccc3)nc12	nt	2.3	nt	32	4	nt	8.2
Cc1cc(C(=O)N2CCN(c3ccccc3O)CC2)c(C)o1	4%	5.7	98*	-1	12	0.3	0.1
CCOC(=O)c1nnn(-c2nonc2N)c1COc1ccc(F)cc1	1%	1.7	-5	-1	-8	-4.2	-0.7
O=C(CSc1nc2ccccc2c(=O)n1Cc1ccccc1)NCc1ccco1	3%	-3.0	-8	9	-13	-0.2	-1.2
C=CCn1c(Cc2ccc(OC)cc2)nnc1SCc1nc2ccccc2c(=O)[nH]1	7%	2.4	-1	-2	-2	5.0	1.9
Cc1ccc(OC(=O)c2cccc(S(=O)(=O)N(C)C)c2)c(-n2nc3ccccc3n2)c1	-1%	1.4	-8	-5	-5	-2.2	-1.4
CC1(c2ccccc2)NC(=O)N(CC(=O)N2CCN(S(=O)(=O)c3ccccc3[N+](=O)[O-])CC2)C1=O (centres undefined)	nt	-3.2	2	-1	3	-0.4	-4.8
COc1ccc(CNC(=O)COC(=O)C(CCSC)NC(=O)c2ccco2)cc1OC (centres undefined)	9%	1.0	-1	-1	nt	117*	nt
O=C(Nc1ccnn1C1CCN(CC2CC=CCC2)CC1)c1ccccc1Cl (centres undefined)	nt	-2.6	-2	-2	-6	1.7	-1.0
COC(=O)c1ccc(/C=N/Nc2nc(-c3ccccc3)cs2)cc1	nt	1.3	70	0	-2	-3.7	2.6
Brc1ccc(OCc2nnc3n2CCC3)cc1	21%	-0.3	-12	-1	-9	0.9	5.8
COc1cccc(S(=O)(=O)Nc2cccc(C(=O)N3CCOCC3)c2)c1	-13%	3.4	-3	4	4	-3.7	1.5
COc1ccc(C(=O)N2CCNC(=O)C2)cc1S(=O)(=O)Nc1ccc(Br)cc1	-1%	0.8	0	2	nt	-2.3	nt
CN1CCN(c2ccc(CNC(=O)c3cc4ccccc4o3)cc2)CC1	-7%	0.4	-14	6	-5	3.0	-0.6
SMILES	Vif A3G	HNF4A DNA FP	ALR H2O2 inh	B2AR ag	Calb FLC	LANA-H2B inh	RanGTP-Impb inh
Cc1ccc(N2C(=O)N3[C@H](c4ccc(F)cc4)[C@@H]4C(=O)N(C5CCCCC5)C(=O)[C@@H]4[C@]3(C)C2=O)cc1	nt	-0.8	1	-6	-7	-0.4	?
COc1cc(CNn2cn[nH]c2=S)ccc1OCC(=O)NC(C)(C)C	-2%	0.8	66	0	-4	1.0	4.3
CN(C)S(=O)(=O)Oc1ccc(Cl)cc1C(=O)Nc1ccc(F)cc1F	-2%	-1.1	1	-1	-27	-6.5	-2.1
COCCNS(=O)(=O)c1ccc2c(c1)Cc1cc(S(=O)(=O)NCCOC)ccc1-2	nt	-0.4	-2	5	-5	-1.9	2.2
C[N+](C)(C)CCCCCCCCCC[N+](C)(C)C	-2%	-5.2	nt	11	nt	2.1&1.8	5.0
CC(C)C(=O)Nc1nnc(CCc2nnc(NC(=O)C(C)C)s2)s1	18%	2.8	0	-10	2	-0.7	-1.2
CCOc1ccc2nc(N(CCN(CC)CC)C(=O)c3cccc([N+](=O)[O-])c3)sc2c1	-3%	2.3	-31	1	-8	-8.7	-0.4
Cc1ccc(NC(=O)CSc2nc(=O)n(CCCN3CCOCC3)c3c2CCCC3)cc1	-2%	1.4	98*	1	4	2.4	3.9
O=C(CSc1nc2ccccc2[nH]1)NC1CCS(=O)(=O)C1 (centres undefined)	1%	-0.8	-2	-5	0	3.2	3.6
CCCCCN(C(=O)CCC(=O)OCc1cccc(Cl)c1)c1c(N)n(CCCC)c(=O)[nH]c1=O	0%	-2.9	nt	6	-5	1.1	3.2
CCCCn1c(SCC(=O)Nc2nc(C)cs2)nnc1-c1cccnc1	-1%	-3.9	nt	-12	3	nt	-2.1
O=C(CCS(=O)(=O)Cc1ccccc1)N1CCc2ccccc2C1	0%	-0.1	3	nt	?	0.6	-7.4
C=C(C)CN(CC)C(=O)CN1C(=O)NC2(CCc3ccccc32)C1=O (centres undefined)	nt	1.1	-4	2	3	-15	0.5
COc1ccc(C(CCc2cc(OC)c(OC)c(OC)c2)NC(C)=O)cc1 (centres undefined)	-4%	8.1	nt	0	nt	nt	nt
CC(C)Cn1c([N+](=O)[O-])nc2c1c(=O)[nH]c(=O)n2C	nt	-3.8	-20	9	-6	0.3	5.1
COc1ccccc1CNS(=O)(=O)CCNC(=O)c1ccccc1	-4%	0.6	-1	-9	16	3.5	-3.0
O=C(Nc1nccs1)C(NS(=O)(=O)c1ccc(Br)s1)c1ccccc1 (centres undefined)	8%&-5%	2.3	-5	0	-3	-0.3	2.8
COC(=O)c1ccc(-n2c(C)cc(C(=O)CSc3cccc[n+]3[O-])c2C)cc1	4%	3.1	1	3	-6	0.4	-4.0
COc1ccc(-c2nnc(SCc3cccc(C#N)c3)o2)cc1	21%	6.0	-8	-4	-10	-1.0	-3.9
COc1ccccc1-c1nnc(Nc2nc3c(OC)cccc3s2)o1	0%	-5.0	-2	31	0	-0.7	-3.3
CCOC(=O)N1CCN(C(=O)COc2ccccc2[N+](=O)[O-])CC1	6%	2.6	12	14	-15	4.7	-5.9
CCN(CC)c1ccc(/C=N/N2CCOCC2)cc1	-3%	4.4	99*	-3	-11	0.7	1.7
COCCNC(=S)N(CCc1c(C)[nH]c2ccc(F)cc12)Cc1ccco1	nt	-4.6	31	6	19	2.6	-0.6
Cc1ccc(C(=O)Nc2ccccc2Oc2ccccc2)o1	-11%	-0.4	1	-12	1	3.7	-1.0
CNC(=S)N(CCc1c(C)[nH]c2ccc(F)cc12)Cc1ccco1	11%	-4.2	25	36	-8	-2.6	2.9
SMILES	Vif A3G	HNF4A DNA FP	ALR H2O2 inh	B2AR ag	Calb FLC	LANA-H2B inh	RanGTP-Impb inh
Cc1cc(C)c(C)c(S(=O)(=O)N2CCN(C(=O)C3CCC3)CC2)c1C	-6%	-1.0	-1	2	-13	0.7	-0.4
CNS(=O)(=O)c1cccc(C(=O)OCC(=O)c2cc(C)n(CC3CCCO3)c2C)c1 (centres undefined)	16%	-1.2	nt	-1	nt	3.4	nt
CCOc1cc(/C=N/N=C(\N)c2nonc2N)cc(Br)c1OCc1cccc2ccccc12	0%	0.3	2	5	-4	-1.0	-0.4
CCOC(=O)COc1ccc2c(=O)cc(-c3ccccc3)oc2c1	-12%	1.2	-15	7	-6	0.7	1.0
CCOC(=O)N1CCN(C(=O)Cc2cccs2)CC1	0%	0.9	3	5	nt	3.5	1.4
COc1ccc(-c2noc(CCC(=O)N3CCN(c4cc(C)ccc4C)CC3)n2)cc1	?	-1.9	-19	12	5	-9.5	-1.1
COc1ccc(CCNC(=O)CN2C(=O)C(=O)N(C3CCCC3)C2=O)cc1OC	nt	-2.0	0	2	nt	2.4	nt
Cc1cc(C)cc(NC(=O)CN(C)S(=O)(=O)c2cnc[nH]2)c1	16%	-1.1	-2	3	-5	-1.0	-3.6
COc1ccccc1N1CCN(C(=O)c2ccc(CN3CCOCC3)cc2)CC1	-3%	3.0	14	1	-2	1.5	1.9
Cc1cccnc1NC(=O)C(c1ccccc1)c1ccccc1	14%	-3.2	-11	0	-4	-2.5	0.0
Cc1ccc(NC(=O)NCCN2CCN(c3ccccc3)CC2)cc1Cl	3%	1.7	-22	-3	-5	0.0	?
Cc1cccc(/C=C\c2nc3ccccc3c(=O)[nH]2)c1	4%	3.5	-18	3	-19	-5.9	7.2
Cc1ccc2c(c1)C(=O)N1[C@H]3c4cc(Cl)ccc4OC[C@@H]3[C@H](c3ccccc3)[C@]1(C)C(=O)N2	nt	2.0	1	5	nt	0.7	nt
CN(C)CCN(C(=O)/C=C/c1cccs1)c1nc2ccc(F)cc2s1	-10%	1.6	nt	-3	12	nt	2.1
COc1ccccc1N(C(=O)c1snc(C(N)=O)c1N)C(C(=O)NC1CCCC1)c1ccc(N(C)C)cc1 (centres undefined)	nt	-0.4	nt	-11	7	-4.6	-1.0
Cc1ccc(CNC(=O)/C=C/c2ccc(Br)o2)cc1	nt	-2.5	3	-7	4	-3.7	1.2
C#CC(C)(CC)NC(=O)Cn1nnc(-c2cccc(C(F)(F)F)c2)n1 (centres undefined)	-5%	-1.0	-2	5	-46	2.0	1.7
CCC1CCCCN1CCCNC(=O)CNC(=O)c1nn(-c2ccc(OC)cc2)c(=O)c2ccccc12 (centres undefined)	nt	-1.1	0	-6	3	-1.0	3.0
CC(C)(C)NC(=O)CN(Cc1ccc2c(c1)OCO2)C(=O)CNS(=O)(=O)c1ccccc1	nt	-1.3	1	-7	3	5.1	-15
COCCNC(=O)c1ccc(NS(=O)(=O)c2cc(C)ccc2C)cc1	4%	2.7	-17	0	32	-3.1	-3.4
O=C(CSc1nnc2ccccn12)Nc1ccc2c(c1)OCCO2	6%	-1.2	-5	4	-3	1.1	-8.7
COC(=O)c1sc2nc3c(cc2c1N)COC(C)(C)C3	3%	5.3	1	1	-8	3.4	-1.8
NS(=O)(=O)c1ccc(NC(=O)COC(=O)c2ccc([N+](=O)[O-])s2)cc1	nt	-2.6	-28	-8	2	-3.6	-3.2
CN(CC(=O)Nc1ccc(F)c(F)c1F)C(=O)c1nn(Cc2ccccc2)c(=O)c2ccccc12	nt	-0.4	nt	6	nt	6.7	nt
O=C(CN(Cc1ccco1)C(=O)c1ccc(Cl)cc1)Nc1c(Cl)cc(Cl)cc1Cl	nt	-0.3	4	7	5	0.9	1.5
O=c1c2ccccc2[nH]c(=S)n1CCN1CCN(Cc2ccccc2)CC1	-6%	-2.9	-2	-14	18	3.3	0.6
O=C(CN1CCOCC1)NCC12CC3CC(CC(C3)C1)C2	11%	4.7	-8	-3	2	-0.6	-0.4
Cc1cc(NS(=O)(=O)c2ccc(NS(=O)(=O)c3cc(C)c(Cl)cc3Cl)cc2)no1	1%	6.7	12	7	0	-2.0	-1.4
